PrP UTR inh: inhibition of PrP 5' UTR reporter expression | cell-based PrP 5' UTR mRNA reporter, plate reader | inhibition, % (no concentration beside the values) | 0.35% of 340,000 active | AID 488862;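 active means every replicate at 50% or more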;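 further: 0 = median of the neutral control wells; tested in H4 reporter cells; numbers are from one replicate; inactives centre near -14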
Mtb hypoxia rep: reduces hypoxia-regulated biosensor signal in M. tuberculosis; 0.1% of 300,000 active; M. tuberculosis hypoxia-regulated fluorescent reporter, fluorescence; fluorescence inhibition, % (test concentration not listed);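 active means 35 to 45% if threefold the growth effect, above 45% if 1.5-fold the growth effect; inactive means the rest, general growth blockers included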;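 further: wells of about 50 µL received 100 nL stock; 0% = vehicle wells and 100% = reference inhibitor wells; whole bacteria with a GFP reporter of the hypoxia response; strong numbers were not always called active; many hits fall short of the cut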
Bead autofluor: flagged as autofluorescent in microsphere protease counterscreen. compound autofluorescence counterscreen, microsphere flow cytometry; active compounds read high. fluorescence intensity (concentration not given with the values). 3.1% of 360,000 active;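 active means at least 3 SD above the mean of all compounds, about 16000 in these data; inconclusive means too few beads counted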;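 further: 100 nL of 1 mM stock went into each well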
BJeLR viability: BJeLR cell viability loss | BJeLR (HRASV12) viability, CellTiter-Glo ATP luminescence, 48 h; reference of the scale not given here | inhibition, % (no concentration beside the values) | 0.17% of 300,000 active;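 active means replicate mean above 50%; inconclusive means above 50% but judged a plate artefact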;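 further: 50 nL library stock added to about 25 µL; numbers are from one replicate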
Sa ugtP lethal: growth inhibition of S. aureus ugtP deletion strain; S. aureus RN4220 ugtP deletion, OD600 growth, 16 h; some inactives read as strong as hits; growth inhibition, % (no concentration beside the values); 0.54% of 330,000 active; AID 1259309;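 active means z-score under -3 and OD600 up to 0.15 on both plates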;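 further: plate controls were untreated wells for no effect and antibiotic for full effect; wells of about 80 µL received 100 nL stock; the first replicate is given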
RN4220 kill: S. aureus RN4220 growth inhibition | OD600, 16 h | inhibition, % (concentration not given with the values) | 0.33% of 330,000 active;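 active means z-score of -3 or lower and OD600 up to 0.18 on both plates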;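 further: plate controls were untreated cells for no effect and reference antibiotic for full effect; stock transfer was 100 nL into about 80 µL; one replicate is shown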
Mtb hypoxia rep growth: further read-out of Mtb hypoxia rep, marked with its call; growth inhibition, %; measured here: M. tuberculosis growth (absorbance);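 0% = vehicle and 100% = reference antibiotic; read after six days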
* marks the source's active call; other numbers are inactive results; u = inconclusive; x = not tested or not shown.

SMILES	PrP UTR inh	Mtb hypoxia rep	Mtb hypoxia rep growth	Bead autofluor	BJeLR viability	Sa ugtP lethal	RN4220 kill
CC(=O)c1cccc(NC(=O)c2cc(-c3ccncc3)nc3ccccc23)c1	-15	0	3	3285	x	3	-0.1
COCCNc1nnc(SCC(=O)c2ccc3c(c2)OCO3)s1	-21	4	5	3193	-4	4	0.4
Cc1ccc(C)c(N(C)S(=O)(=O)c2ccc3c(c2)oc(=O)n3C)c1	-12	7	0	2932	11	2	6.9
CCC(=NC(C)c1ccccc1)c1c(O)[nH]c(=O)[nH]c1=O (centres undefined)	3	-1	-3	4169	2	2	1.8
CC(C)OCC(O)CN1CCC(Cc2ccccc2)CC1 (centres undefined)	-3	8	-1	5212	4	1	3.8
O=CC(Br)P(=O)(N1CCOCC1)N1CCOCC1 (centres undefined)	x	-9	-3	x	-6	-3	1.5
Cc1ccc(C)c(N2CCN(S(=O)(=O)c3ccc4c(c3)C(C)(C)C(=O)N4C)CC2)c1	-5	x	x	4640	-8	7	-0.7
Cc1ccc2nc(-c3ccc(NC(=O)CN4C(=O)c5ccccc5C4=O)cc3)sc2c1	-79	16	8	2211	-3	-6	7.2
O=C(/C=C/c1cccs1)c1ccc(NC(=O)c2cccc(Br)c2)cc1	-33	9	8	3447	-8	-13	-8.3
CC(C)NC(=O)COC(=O)c1ccc(Oc2ccccc2)cc1	-9	x	x	4630	4	2	-10
NC(=O)N/N=C\c1cccs1	-5	x	x	3520	-4	x	x
Cc1ccc(N(C)S(=O)(=O)c2cccc(C(=O)OCC(=O)N3CCCC(C)C3)c2)cc1 (centres undefined)	-12	9	2	4099	x	4	6.6
Cc1ccc(NC(=O)Cn2nnc(C(=O)NCc3ccccc3)c2N)cc1C	-18	12	8	23778*	0	-10	8.8
CC(=O)Nc1ccc(Nc2cc(-c3ccccc3)nc3ncnn23)cc1	3	-11	6	4605	-8	-67	6.4
O=C(Nc1ccc(N2CCOCC2)cc1)c1nc2ccccc2s1	2	-10	3	x	13	8	3.3
Cc1ccc(CONC(=O)N=CN(C)C)cc1	x	1	10	x	x	-2	5.4
CC1Cc2ccccc2N1C(=O)C1CCCN1S(=O)(=O)c1ccc(Cl)cc1 (centres undefined)	-6	-3	-8	9636	-3	-4	-5.7
COc1ccc(CCNC(=O)CSc2nn(-c3ccccc3)c(=S)s2)cc1	-21	13	9	5217	3	2	1.2
CC(C)C(=O)Nc1ccc2nn(-c3ccc(F)cc3)nc2c1	-80	-2	7	3969	-6	-5	2.9
CC[C@]12c3[nH]c4cc(-c5ccco5)ccc4c3CCN1C(=O)[C@@H](CC(=O)NCCCN(C)C)C[C@@H]2C(=O)N1CCN(C(=O)c2ccco2)CC1	-31	7	4	2985	x	-4	0.0
O=C(ON=C1CCSc2ccccc21)c1ccc(F)cc1	x	-1	14	x	x	3	3.3
CCOC(=O)c1c(C)[nH]c(C)c1S(=O)(=O)N1CCN(c2cccc(C)c2)C(C)C1 (centres undefined)	-20	14	6	4319	8	-3	-0.3
Cc1ccc(OCCNC(=O)CCc2nc3sc4c(c3c(=O)[nH]2)CCCC4)cc1	-29	4	0	6013	1	1	9.4
CC(Oc1ccc2ccc(=O)oc2c1)C(=O)NCCN1CCOCC1 (centres undefined)	-3	8	-2	4029	9	1	-1.8
C/C=C/C(=O)OCC(=O)NC(=O)NC(C)C	-15	10	10	3717	6	5	0.0
COc1ccccc1OCCSc1nnnn1C1CCCCC1	-43	-5	-2	3393	-2	6	-4.7
O=C1N=C(N2CCOCC2)S/C1=C\C=C/c1ccccc1	-56	17	6	4610	-6	6	7.7
CCOc1cc(C=Nn2cnnc2)ccc1OCC(=O)Nc1ccccc1OC	x	22	12	x	x	-8	-14
N#Cc1cn(CC(=O)NCc2cccnc2)c2ccccc12	-2	-3	16	5825	-5	7	5.3
O=C(COC(=O)c1cc[n+]([O-])cc1)Nc1cccc(Cl)c1Cl	-17	0	14	4507	6	8	3.1
CN(CC(=O)Nc1ccc(Cl)c(C(F)(F)F)c1)C(=O)c1ccc(N2CCOCC2)c([N+](=O)[O-])c1	-3	-7	2	6825	-4	-7	9.7
COc1cc(/C=N/NC(=O)CCn2c3ccccc3c3ccccc32)ccc1O	-21	x	x	10032	-5	x	x
Cn1nc(C(C)(C)C)cc1C(=O)NCc1ccc(N2CCCC2=O)cc1	0	2	0	23561*	27	12	3.2
O=C(Nc1nccs1)c1nc[nH]c1C(=O)NCc1ccccc1	-6	3	-2	2945	x	-5	5.2
COc1ccc(/C=N/n2c(-c3cccs3)n[nH]c2=S)cc1	9	x	x	2630	0	x	x
NCCCCCC(=O)N/N=C/c1ccc2nccnc2c1	-26	x	x	3987	-6	x	x
Cc1ccc(S(=O)(=O)N(C)C[C@H]2Oc3c(NC(=O)Nc4cccc5ccccc45)cccc3C(=O)N([C@@H](C)CO)C[C@@H]2C)cc1	-18	-6	9	3732	x	-11	3.9
O=C(COc1ccc2ccccc2c1)Nc1nccs1	-19	2	6	3471	-3	1	9.7
COc1ccc(S(=O)(=O)NCc2ccco2)cc1C(=O)N1CCOCC1	-11	-7	7	3578	-2	9	3.8
O=C(Nc1nc2ccccc2s1)c1ccc(OCC2CCCO2)cc1 (centres undefined)	-31	-3	-5	2606	2	-4	16
CC[C@@H](C)C(NC(=O)OC(C)(C)C)c1cn([C@@H](Cc2ccc(O)cc2)C(=O)N2CCN(C(=O)OC(C)(C)C)CC2)nn1 (some centres undefined)	-11	x	x	4154	-5	x	x
COc1cccc(CC(=O)Nc2ccc3c(c2)CCC3)c1	-28	5	5	3809	2	1	-0.3
O=C(CCC(=O)N/N=C/c1cc(Cl)cc(Cl)c1O)NCc1ccccc1	-5	x	x	2259	-9	x	x
CCNC(=O)N1CCN(C(=O)NCC)CC1	-27	14	11	3887	0	3	17
CC(=O)c1ccc(-c2ccc(C(=O)N(C)c3c(N)n(Cc4ccccc4)c(=O)[nH]c3=O)o2)cc1	-31	7	6	u	-10	11	1.8
CC1CN(C(C)CO)C(=O)c2cccc(NC(=O)C3CCCCC3)c2OC1CN(C)S(C)(=O)=O (centres undefined)	x	17	5	x	x	6	4.6
CCOC(=O)C1=C(CC)Nc2ccccc2N/C1=N\S(=O)(=O)c1ccc(C(=O)OCC)cc1	-18	-2	7	3592	5	-9	7.6
Cc1cc(-n2c(C)cc(C(=O)COc3cccnc3[N+](=O)[O-])c2C)no1	-12	2	-7	u	x	6	1.8
COCCCNC(=O)C1CCN(S(=O)(=O)N(CC(C)C)CC(C)C)CC1	-26	5	4	10197	-1	0	1.4
O=C1CN(C(=O)CSc2nc3ccccc3c(=O)n2Cc2ccc(F)cc2)c2ccccc2N1	-22	-1	13	2153	11	-19	-3.5
CC(C)(C)OC(=O)n1cc(C=NNC(=O)c2ccco2)c2ccccc21	x	-2	-1	x	x	6	-0.1
COc1ccccc1CCNS(=O)(=O)CCNC(=O)c1ccc2c(c1)OCO2	-1	0	8	u	-5	-6	-1.1
CCOC(=O)c1c(NC(=O)COC(=O)CNC(=O)c2ccco2)sc(C)c1C	1	12	2	1963	2	1	-0.3
Fc1ccc(CNCCC(Cc2ccccc2)c2ccco2)cc1 (centres undefined)	-13	5	5	3811	1	-10	1.5
COc1ccc(NC(=O)CSc2nnc(-c3ccccn3)n2N)c(OC)c1	-16	5	4	x	8	2	1.1
CC1(C)Cc2[nH]c(=O)c(C#N)cc2CS1	-14	17	5	2869	2	2	-6.4
COc1cccc(NC(=O)CCC2CCN(C(=O)c3c(C)noc3C)CC2)c1	4	-1	-6	4310	2	0	-2.2
CCCC(C(=O)NC1CCCC1)N(Cc1ccc2c(c1)OCO2)C(=O)c1snc(C(N)=O)c1N (centres undefined)	-16	0	0	6549	3	3	-0.4
CCCCn1c(N)c(N(Cc2ccccc2OC)C(=O)CN2C(=O)NC(C)(c3ccccc3)C2=O)c(=O)[nH]c1=O (centres undefined)	-8	x	x	6417	1	x	x
COC(=O)CNC(=O)c1ccc(=O)oc1	-6	x	x	5248	8	-4	0.0

More entries:
SMILES	PrP UTR inh	Mtb hypoxia rep	Mtb hypoxia rep growth	Bead autofluor	BJeLR viability	Sa ugtP lethal	RN4220 kill
Cc1ccc(S(=O)(=O)NCCOc2nc(N3CCOCC3)nc(N3CCOCC3)n2)cc1	6	-8	7	21551*	-1	-4	-2.0
CSc1nc(-c2ccc(C)cc2)[nH]c1S(=O)(=O)c1ccccc1	-35	x	x	4373	9	6	-1.7
Cc1ccc(-n2c(C)cc(C=NNC(=O)CC3(C)OCCO3)c2C)cc1	x	-2	6	x	x	-4	5.0
Cc1noc(C)c1C(=O)N1CCC(C(=O)c2ccc(F)cc2F)CC1	-21	1	1	6023	-3	3	2.7
CCCC(=O)Nc1ccc(OCC(O)CNC(C)C)c(C(C)=O)c1 (centres undefined)	6	-4	-2	3983	-8	0	3.4
NC1=NC(=O)/C(=C/c2cn(Cc3ccccc3)c3ccccc23)S1	-11	3	7	2196	2	-21	11
O=C(OCc1csc(-c2ccccc2)n1)c1ccc(O)cc1	-72	x	x	4734	-1	x	x
CC(=O)Nc1ccc(N2CC(C)(C)C2=O)cc1	-15	-4	5	4603	0	1	3.0
Cc1ccccc1-n1c(SCC(=O)N2CCC(C(=O)O)CC2)nnc1-c1ccncc1	1	12	-3	4070	-3	3	2.8
Nc1ccccc1C(=O)NCCCN1CCN(c2cccc(Cl)c2)CC1	5	8	4	5942	-3	7	0.5
CCc1c(C)c2cc(Cl)c(O)c(CN3CCCC3)c2oc1=O	x	1	9	3599	4	5	-0.4
Cc1ccc(N=Cc2nc(-c3ccc(C)cc3)oc2O)cc1	-14	1	5	3875	-3	-3	2.5
Cc1cc2oc3ccc(NCCC4CCCN4C)cc3c(=O)c2cc1C (centres undefined)	-20	3	9	5118	11	10	0.3
Cc1cc(C(=O)Cn2nnc3ccccc3c2=O)c(C)n1-c1c(C)n(C)n(-c2ccccc2)c1=O	3	5	4	7903	3	-1	1.6
Cc1cccc2nc3c(nc12)-c1ccccc1C3=O	-68	13	8	3347	0	7	8.0
COc1ccc(NC(=O)CC2C(=O)N(c3cccc(OC)c3)C(=O)N2CCC(C)C)cc1 (centres undefined)	-9	10	6	19759*	-1	-5	7.3
O=C(c1ccccc1/S(=N/S(=O)(=O)c1ccccc1)N1CCOCC1)N1CCOCC1 (centres undefined)	-2	15	7	3360	2	10	4.7
COc1cc(NC(=O)CC(C)n2ccnc2)cc(OC)c1 (centres undefined)	-8	-7	0	3509	-2	-3	-1.9
CCOc1cccc(NCc2cc3c(C(C)(C)C)nn(-c4ccccc4)c3[nH]c2=O)c1	-19	-6	-10	6948	-1	-17	-12
Cc1nnc(C)n1N=Cc1ccccn1	x	4	3	x	x	11	3.1
COc1ccccc1COn1c(=O)c(-c2ccco2)[n+]([O-])c2ccccc21	-8	14	-1	4721	3	-4	3.6
COc1ccccc1NC(=O)CSc1nccc(-c2ccco2)n1	-4	11	4	3794	x	4	5.8
Cc1ccc(N=Cc2cc3c(cc2[N+](=O)[O-])OCO3)cc1[N+](=O)[O-]	x	10	3	x	-15	6	1.5
COc1cc(C=Nn2nnnc2N)ccc1OCC(N)=O	x	-8	0	x	x	3	3.9

From PubChem BioAssay
